# VDR inhibitor: blocks the human vitamin D receptor; VDR-SRC2-3 peptide fluorescence polarization, 2 h; Potency, µM, inactives show max response, negative = inhibition, most hits filed as inhibitors; 400,000 tested, 0.93% active; active = well fitted inhibition curve with a large enough effect; inconclusive = small, poorly fitted or top-dose-only effect, or another doubt; inactive = no such curve, though single readings can be large or run the other way; note: series mostly up to about 120 µM
# Target sequence (P11473 whole entry, looked up): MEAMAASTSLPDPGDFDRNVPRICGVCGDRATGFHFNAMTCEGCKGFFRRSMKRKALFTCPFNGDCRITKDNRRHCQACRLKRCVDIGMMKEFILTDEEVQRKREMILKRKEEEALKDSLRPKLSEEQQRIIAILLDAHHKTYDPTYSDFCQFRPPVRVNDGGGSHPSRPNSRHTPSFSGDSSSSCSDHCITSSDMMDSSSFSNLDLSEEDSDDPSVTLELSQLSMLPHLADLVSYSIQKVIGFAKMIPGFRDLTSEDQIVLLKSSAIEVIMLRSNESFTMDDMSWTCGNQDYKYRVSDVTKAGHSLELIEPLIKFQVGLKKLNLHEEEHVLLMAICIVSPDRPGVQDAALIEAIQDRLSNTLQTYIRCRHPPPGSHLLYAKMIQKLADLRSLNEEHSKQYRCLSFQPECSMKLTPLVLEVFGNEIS
#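 FP read-out; VDR + SRC2-3 coactivator peptide; 23 nl compound by pintool; 2 h RT incubation; reagents held at 4 deg C, protected from light.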
# Active calls of the source: *; ? = inconclusive; & = joins results of further samples. % is set by controls: 0 for no effect and ±100 for the full control effect; potency is the fitted concentration of half-maximal effect. The list is partial; count on the stated rates, not on these rows.
VDR inhibitor,Molecule
-11.3%,Cc1cccc(CN2CCN(C(=O)CCl)CC2)c1
18.6%,COC(=O)CNC(=O)CN1C(=O)NC2(CCCc3ccccc32)C1=O (stereo not drawn)
?,COc1ccc(-c2cn(Cc3ccc(C(N)=O)cc3)c(-c3ccc(Cl)nc3)n2)cc1
-17.0%,COc1cccc(-c2ccc(NC(=O)C3CCCN(Cc4cnn(C)c4C)C3)cc2)c1 (stereo not drawn)
-10.7%,O=C(c1c(F)cccc1F)N1CCN(c2ncccn2)CC1
-18.0%,Cc1ccc(N=Cc2cc(Br)cc(Cl)c2O)cc1
-10.4%,Cc1csc(N/N=C/c2ccccn2)n1
-13.3%,CC(=O)Nc1ccc(N(CC(=O)NC2CCCC2)C(=O)CCC(=O)Nc2cc(C)on2)cc1
5.4%,CCNC(=S)NNC(=O)C1CCCCC1
8.9%,Cc1cc(C)n(CC(=O)N/N=C/c2cc([N+](=O)[O-])ccc2O)n1
-16.4%,O=C1CCCC2=C1C(c1ccncc1)c1c(nc(SCc3ccccc3)[nH]c1=O)N2 (stereo not drawn)
1.3%,Cc1ccc(Cn2ncc3c(NN)ncnc32)cc1
-15.9%,CCNC(=O)CC1C(=O)N(c2ccccc2)C(=O)N1CCc1ccc(OC)cc1 (stereo not drawn)
-3.0%,Cc1ccc(N2CC(C(=O)OCC(=O)c3ccc(C)c([N+](=O)[O-])c3)CC2=O)cc1 (stereo not drawn)
2.2%,O=C1OC(c2ccccc2)=C/C1=C/c1cccs1

# Next section.
VDR inhibitor,Molecule
-22.2%,Cc1cc(C)c(C)c(S(=O)(=O)NCC(=O)O)c1C
13.6%,CCOc1ccc(-c2ccc(NS(=O)(=O)c3ccc(C)cc3)cc2)nn1
8.2%,COc1ccc2c(c1)c(N1CCCC1=O)c(C(=O)Nc1ccc(Cl)cc1C)n2C
6.3%,COc1cccc(C=Nc2cc(C)on2)c1O
18.8%,Cc1nc(NC(=O)C2CC2)sc1C(=O)N(C)C
5.1%,C=C1c2ccccc2O[C@H](C(=O)OCC)[C@H]1OC
2.5%,CCc1ccc(-n2nc(CO)c(C(=O)NCc3ccccc3OC)n2)cc1
17.9%,O=C(NCCCN1CCN(c2ccc(F)cc2)CC1)c1cccc(N2CCCC2=O)c1
-14.2%,COc1ccc(S(=O)(=O)Nc2ccc3c(c2)C(=O)N([C@H](C)CO)C[C@H](C)[C@@H](CN(C)S(C)(=O)=O)O3)cc1
0.5%,O=C(/C=C/c1ccccc1)NC1CC2CCC1C2 (stereo not drawn)
31.6µM*,FC(F)(F)c1cccc(Sc2nc(-c3ccccc3)nnc2C(F)(F)F)c1
-5.3%,CC(NC(=O)CN1C(=O)NC(Cc2ccccc2)(Cc2ccccc2)C1=O)C12CC3CC(CC(C3)C1)C2 (stereo not drawn)
8.6%,Cc1cc(C(=O)CSc2nnc(N)s2)c(C)n1Cc1ccco1
-18.0%,Cc1noc(/C=C/c2ccccc2F)c1S(=O)(=O)N1CCC(C(=O)N2CCN(C)CC2)CC1
1.6%,FC(F)(F)c1ccccc1NC1=NCCC1

# The results go on:
VDR inhibitor,Molecule
-0.3%,COC(=O)CSc1nnc(-c2ccc(S(=O)(=O)N3CCCC3)cc2)o1
-12.5%,CC(O)[C@H](NC(=O)C1CCN(C(=O)[C@H](Cc2ccccc2)NC(=O)OC(C)(C)C)CC1)C(=O)O (stereo partly drawn)
?,CC1=C/C(=N\OS(=O)(=O)c2ccccc2)C(C(C)C)=CC1=O
8.5%,CCC(C(=O)NCCc1ccc(Cl)cc1)n1nc(C)c2c(C)n(-c3ccccc3)nc2c1=O (stereo not drawn)
6.0%,O=C(CN1C(=O)NC2(CCCCC2)C1=O)Nc1ccc(F)cc1
-8.8%,COc1cc(OC)cc(C(=O)N(CN2CCCC2=O)c2ccccc2OC)c1
12.1%,O=C(O)CCS(=O)(=O)Cc1ccccc1F
-8.7%,CCCc1cc(=O)[nH]c(SCC(=O)Nc2nonc2N)n1
3.4%,COc1ccc(C(=O)NCc2nnc(SCC(=O)Nc3cc(Cl)ccc3OC)o2)cc1
3.5%,Cc1c(NC(=O)c2ccccc2)cccc1[N+](=O)[O-]
1.1%,COc1ccc(C2CC(=O)C(C3NCCc4ccccc43)=C(O)C2n2cncn2)cc1 (stereo not drawn)
-17.4%,COc1cc(/C=C/c2nc3ccccc3c(=O)[nH]2)cc(Br)c1O
19.2%,CN1C(=O)CSc2ccc(NC(=O)N3CCc4ccccc43)cc21
6.2%,COc1cccc2sc(Nc3nnc(-c4ccccc4Cl)o3)nc12
-12.3%,CN(C)c1ccc(NC(=O)/C=C/c2c(Cl)cccc2Cl)cc1

# Continuation.
VDR inhibitor,Molecule
-1.1%,O=C(NCc1ccncc1)C(=O)NCC1OCCCN1S(=O)(=O)c1ccc(F)cc1 (stereo not drawn)
5.3%,CN(c1cccc(Cl)c1)S(=O)(=O)c1cccc(C(=O)NN2CCOCC2)c1
-18.5%,Cc1ccsc1/C=N/Nc1nc2ccccc2[nH]1
10.3%,CCn1c(=N)c(C(=O)NCCCOC)cc2c(=O)n3cccc(C)c3nc21
1.8%,Cc1ccc2c(CN3CCCc4ccccc43)cc(=O)oc2c1C
-27.6%,CC(=O)C1=C(O)C(=O)N(c2cccc(Br)c2)C1c1ccc(Br)cc1 (stereo not drawn)
27.8%,Cc1ccc(Cl)cc1NC(=O)c1cnn2c1NC(c1ccco1)CC2C(F)(F)F (stereo not drawn)
5.1%,O=C(/C=C\c1ccco1)Oc1cccc2cccnc12
6.3%,CCc1ccccc1NC1c2ccccc2C(=O)N1c1cc(C)ccn1 (stereo not drawn)
-9.8%,CCCCn1c(=O)c(CCC(=O)OCC(=O)Nc2ccc(F)c(Cl)c2)nc2ccccc21
-2.2%,CC(C)c1ccc(NC(=S)NNC(=O)C2CC2)cc1
0.5%,Clc1ccc(C2[C@H]3CN(Cc4cccnc4)[C@H](c4ccccc4)C34CC2(c2ccccc2)C4)cn1 (stereo partly drawn)
1.1%,Cc1cccc(N2C(=O)CCC2=O)n1
-6.7%,O=C(COC(=O)c1ccc(S(=O)(=O)Nc2ccccc2)cc1)NCC1CCCO1 (stereo not drawn)
-8.5%,CC(C)=CCSc1nnc(CCNC(=O)OC(C)(C)C)o1

# Next part
VDR inhibitor,Molecule
9.2%,Cc1ccc(SCC(=O)N2CCN(c3ccc(F)cc3)CC2)cc1
10.2%,CC(=O)Nc1ccc(OCC(O)Cn2ccnc2)cc1 (stereo not drawn)
-7.0%,COc1ccc(C(=O)N2CCC3(CC2)CN(c2ccc(-c4ccccc4)cc2)C3)cc1
2.4%,O=c1c2c(nc3cc(-c4ccccc4)[nH]n13)CCC2
5.1%,Cc1ccc(OCCCC(=O)Nc2nccs2)cc1
-13.0%,Fc1ccc(N2CCN(c3ncnc4c3nc3n4CCCC3)CC2)cc1
10.6%,Cn1c(N)c(Sc2ccccc2[N+](=O)[O-])c(=O)n(C)c1=O
-14.7%&1.7%,COc1c(C)c2c(c(O)c1C/C=C(\C)CCC(=O)O)C(=O)OC2
6.7%,CCOc1ccc(NC(=O)N2CCC(NC(=O)C(Cc3cccc(F)c3)NC(C)=O)CC2)cc1 (stereo not drawn)
-7.8%,CNC(=O)CSc1nc(SC)ns1
12.3%,CCOc1ccc(N(Cc2cc3cc(OC)ccc3[nH]c2=O)S(C)(=O)=O)cc1
-2.6%,COC(=O)c1ccccc1NC(=O)CSc1nnc(-c2cccnc2)n1C
0.1%,CC(C)C(NC(=O)c1ccccc1)C(=O)OCC(=O)N1CCN(c2ccccc2)CC1 (stereo not drawn)
-16.5%,CCOC(=O)C1(Cc2ccccc2)CCCN(C2CCCC2)C1 (stereo not drawn)
-2.7%,CC1CCC(C(=O)c2c(O)c3ccccc3oc2=O)CC1 (stereo not drawn)

# Next section
VDR inhibitor,Molecule
7.2%,COc1ccc(N2CCN(C(=O)CN(c3ccccc3)S(=O)(=O)c3ccc(OC)cc3)CC2)cc1
-1.3%,Cc1ccc(C)c(S(=O)(=O)N2CCCCC2CCNC(=O)C(=O)NCc2cccnc2)c1 (stereo not drawn)
-11.9%,COc1ccc(NC(=O)CN(C)CC(=O)NC2CCCCC2C)cc1 (stereo not drawn)
-18.9%,COc1cc(NC(=O)C2CC(c3ccccc3O)=NO2)c(OC)cc1Cl (stereo not drawn)
-7.4%,Cc1ccc(-n2c3nc(=O)n(C)c(=O)c-3cc3ccccc32)c(C)c1
-9.3%,O=C(Nc1nnc(SCC(=O)N2CCOCC2)s1)c1ccccc1
-9.8%,CCN(CC)C(=O)c1ccc(Oc2ccc([N+](=O)[O-])cc2Cl)cc1
12.2%,Clc1ccc(-n2ncc3c(NCc4ccc5c(c4)OCO5)ncnc32)cc1
13.2%,CCc1ccc(CN2CCCC(CCC(=O)N3CCN(c4ccccn4)CC3)C2)o1 (stereo not drawn)
-5.1%,CCOC(=O)CN1Cc2cccc(C(=O)O)c2C1=O
-2.9%,O=c1[nH]c2cc3ccccc3cc2nc1C(F)(F)F
-4.7%,Cc1ccccc1S(=O)(=O)Cc1ccc(C(=O)NC2CCCC2)o1
0.2%,Cn1c(=O)c(-c2cccs2)nc2cnc(OCc3ccccc3)nc21
-5.0%,CN1CCN(c2ncc3nc(-c4ccccc4)c(=O)n(C4CC4)c3n2)CC1
2.1%,O=C1C(=O)N(CCCN2CCOCC2)C(c2ccc([N+](=O)[O-])cc2)/C1=C(/O)c1ccc2c(c1)OCO2 (stereo not drawn)

# Grouped by structure, the entries above containing two or more sulfur atoms (5)
VDR inhibitor,Molecule
-14.2%,COc1ccc(S(=O)(=O)Nc2ccc3c(c2)C(=O)N([C@H](C)CO)C[C@H](C)[C@@H](CN(C)S(C)(=O)=O)O3)cc1
8.6%,Cc1cc(C(=O)CSc2nnc(N)s2)c(C)n1Cc1ccco1
-0.3%,COC(=O)CSc1nnc(-c2ccc(S(=O)(=O)N3CCCC3)cc2)o1
-7.8%,CNC(=O)CSc1nc(SC)ns1
-9.3%,O=C(Nc1nnc(SCC(=O)N2CCOCC2)s1)c1ccccc1

# (further entries)
VDR inhibitor,Molecule
-5.2%,CCOC(=O)c1c(C)n(C)c2ccc(OC)c(NC(=O)CN3CCN(C(=O)c4ccco4)CC3)c12
7.2%,CCOc1ccc2nc(NC(=O)c3nc(SCc4ccc(C)cc4)ncc3Cl)sc2c1
13.3%,CCS(=O)(=O)N1CCc2cc(C(=O)Nc3cccc(C)c3C)ccc21
-10.6%,CC(C(O)c1cc(=O)c(OCc2ccccc2)co1)[N+](=O)[O-] (stereo not drawn)
-3.0%,COc1ccc(NC(=O)CN(C)C(=O)c2cc(-c3ccc(C)o3)nc3ccccc23)cc1
-22.2%,CCNC(=O)COc1ccc(-c2ccccc2)cc1
-1.3%,CCn1c(C)c(P(c2ccccc2)c2ccccc2)[n+]2ccccc12
-27.7%,Cc1ccc(S(=O)(=O)N2CCN(CC(=O)N/N=C/c3cc([N+](=O)[O-])ccc3Cl)CC2)cc1
10.2%,Cc1cc(NC(=O)CSc2nnc(NC(=O)C3CC(=O)N(c4ccccc4C)C3)s2)no1 (stereo not drawn)
-13.9%,CCCn1c(C(CO)Nc2nc(-c3cccc(Br)c3)cs2)nc2ccccc21 (stereo not drawn)
-2.5%,Cc1ccc2oc(=O)c3cc(C(=O)NCCCN4CCCCCC4)sc3c2c1
12.6%,COC(=O)c1[nH]nc(-c2ccccc2)c1-c1ccccc1
-9.0%,CC(=O)N1CCN(C(=O)CCc2cc(C(C)(C)C)c(O)c(C(C)(C)C)c2)CC1
4.7%,CCOC(=O)C1=CN(Cc2cccc(F)c2)S(=O)(=O)NC1c1ccc2ccccc2c1 (stereo not drawn)
-7.1%,CC(C)CNc1nc(Oc2ccc(OCC(N)=O)nn2)nc(N2CCOCC2)n1

# Following part:
VDR inhibitor,Molecule
-11.5%,CC1CC1C(=O)OCC(=O)Nc1ccc2[nH]c(=O)[nH]c2c1 (stereo not drawn)
-6.0%,O=C(O)CSCC(=O)Nc1cccc(C(F)(F)F)c1
-8.6%,O=C1NC2(CCc3ccccc3C2)C(=O)N1CCOc1cccc(Cl)c1 (stereo not drawn)
-3.8%,CCOC(=O)c1ccc(NC(=O)N(CC)CC)cc1
9.0%,COc1ccccc1C(O)P(=O)(OCC(C)C)c1ccc(N(C)C)cc1 (stereo not drawn)
-16.9%,O=C(OCC(=O)N1CCN(C(=O)c2ccco2)CC1)c1cc(S(=O)(=O)Nc2ccc(Cl)cc2)ccc1O
-14.2%,Cc1ccc(C23CC4CC(CC(C(=O)NCC(=O)O)(C4)C2)C3)cc1
22.0%,COc1ccc(CCNCc2ccc(OCc3ccccc3)cc2)cc1
-10.5%,Cc1ccc(S(=O)(=O)N2CCN(C(=O)CCNC(=O)c3ccccc3Cl)CC2)cc1
13.4%,COc1ccc(NC(=O)C2CCCN2S(=O)(=O)c2ccc3c(c2)CCC(=O)N3)cc1Cl (stereo not drawn)
5.3%,COc1ccc(-n2ncc3c(N4CCN(Cc5ccccc5)CC4)ncnc32)cc1
-13.7%,Cc1c(Cc2ccccc2)c(=O)oc2cc(OCC(=O)NCc3ccccn3)ccc12
-1.2%,CCOC(=O)C1(CC2CC2)CCN(C(=O)c2cc(C)nc3ccc(CC)cc23)CC1
-18.4%,O=C(Cn1cnc2ccccc2c1=O)Nc1nnc(C2CC2)s1
-11.6%,Cc1nc(COC(=O)c2ccc(S(=O)(=O)N3CCCC3)cc2)cs1
89.1µM*,O=C(CCNc1ccc(Br)cc1)c1cccc([N+](=O)[O-])c1
3.7%,Cn1c(=O)c2c(nc(-n3ccnc3)n2Cc2ccc([N+](=O)[O-])cc2)n(C)c1=O
-14.0%,COC(=O)COc1ccc2c(-c3cccc([N+](=O)[O-])c3)cc(=O)oc2c1

# Entries listed above that bear a hit mark in VDR inhibitor:
VDR inhibitor,Molecule
31.6µM*,FC(F)(F)c1cccc(Sc2nc(-c3ccccc3)nnc2C(F)(F)F)c1
89.1µM*,O=C(CCNc1ccc(Br)cc1)c1cccc([N+](=O)[O-])c1

# Bioassay records as filed in PubChem.
